RN4220 kill = kills Staphylococcus aureus RN4220; S. aureus RN4220 growth, OD600, 16 h; inhibition, % (concentration not given with the values); actives 0.33% (n = 330,000);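 active = z-score of -3 or lower and OD600 up to 0.18 on both plates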;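 also: plate controls were untreated cells for no effect and reference antibiotic for full effect; stock transfer was 100 nL into about 80 µL; one replicate is shown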
ugtP null kill = growth inhibition of S. aureus ugtP deletion strain; S. aureus RN4220 ugtP deletion, OD600 growth, 16 h; some inactives read as strong as hits; growth inhibition, % (test concentration not listed); actives 0.54% (n = 330,000);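 active = z-score under -3 and OD600 up to 0.15 on both plates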;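 also: plate controls were untreated wells for no effect and antibiotic for full effect; wells of about 80 µL received 100 nL stock; the first replicate is given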
BJeLR viability = kills HRASV12-expressing BJeLR cells | BJeLR (HRASV12) viability, CellTiter-Glo ATP luminescence, 48 h; reference of the scale not given here | actives 0.17% (n = 300,000) | inhibition, % (no concentration beside the values);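 active = replicate mean above 50%; inconclusive = above 50% but judged a plate artefact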;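 also: 50 nL library stock added to about 25 µL; numbers are from one replicate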
Mtb hypoxia inh = inhibitors of hypoxia-regulated fluorescent reporter in Mycobacterium tuberculosis | M. tuberculosis hypoxia-regulated fluorescent reporter, fluorescence | fluorescence inhibition, % (test concentration not listed) | actives 0.1% (n = 300,000);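 active = 35 to 45% if threefold the growth effect, above 45% if 1.5-fold the growth effect; inactive = the rest, general growth blockers included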;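 also: wells of about 50 µL received 100 nL stock; 0% = vehicle wells and 100% = reference inhibitor wells; whole bacteria with a GFP reporter of the hypoxia response; strong numbers were not always called active; many hits fall short of the cut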
PrP UTR inh = suppresses PrP 5' UTR mRNA reporter expression; cell-based PrP 5' UTR mRNA reporter, plate reader; inhibition, % (test concentration not listed); actives 0.35% (n = 340,000);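 active = every replicate at 50% or more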;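 also: 0 = median of the neutral control wells; tested in H4 reporter cells; numbers are from one replicate; inactives centre near -14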
Bead autofluor = flagged as autofluorescent in microsphere protease counterscreen. compound autofluorescence counterscreen, microsphere flow cytometry; stronger effect = higher value. fluorescence intensity (test concentration not listed). actives 3.1% (n = 360,000). AID 624483;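 active = at least 3 SD above the mean of all compounds, about 16000 in these data; inconclusive = too few beads counted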;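 also: 100 nL of 1 mM stock went into each well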
Mtb hypoxia inh growth = further read-out of Mtb hypoxia inh, marked with its call; growth inhibition, %; measured here: M. tuberculosis growth (absorbance);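 0% = vehicle and 100% = reference antibiotic; read after six days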
Active calls of the source: *; ? = inconclusive; . = no result given; & = joins results of further samples.

nr | structure | BJeLR viability | Bead autofluor | ugtP null kill | Mtb hypoxia inh | PrP UTR inh | Mtb hypoxia inh growth | RN4220 kill
1 | COc1ccc(C(=O)Nc2nc3ccccc3[nH]2)cc1OC | -1 | 21383* | -2 | -3 | -64 | 1 | 5.1
2 | COC(=O)C(C)Sc1nnc(Cc2cc(=O)[nH]c(=O)[nH]2)n1-c1cc(C)ccc1C (stereo not drawn) | -2 | 5687 | 6 | . | -19 | . | -1.6
3 | O=C(NC(=S)Nn1cnnc1)c1ccccc1Br | -6 | 4346 | -2 | 0 | -20 | 12 | 2.0
4 | COc1ccc(CN2CCN(C(=O)c3cccs3)CC2)cc1 | 8 | 5934 | 13 | . | 6 | . | 1.1
5 | Cc1cc(C)c(C(N)=O)c(SCC(=O)c2cc(C)c(C)cc2C)n1 | -1 | 2489 | -1 | 17 | -31 | 3 | 5.5
6 | CN(Cc1ccccc1F)C(=O)COc1ccc(C(=O)c2ccccc2)cc1 | -5 | 4085 | 8 | 2 | -22 | -1 | -1.6
7 | O=C(CN1CCN(C(=O)CNC(=O)c2ccc3c(c2)OCO3)CC1)Nc1ccc(F)cc1 | . | 3496 | -6 | -8 | -18 | 11 | 1.5
8 | O=C(Nc1cccc(Cl)c1)OCc1cn(-c2ccccc2)nn1 | 2 | 5337 | -30 | -3 | -15 | 1 | 2.5
9 | O=C(Nc1ccc2c(c1)OCCO2)c1cccnc1Oc1ccc(Cl)cc1 | 2 | 4066 | 16 | 2 | -27 | 1 | 3.5
10 | O=C(OCCCOC(=O)c1cc[n+]([O-])cc1)c1cc[n+]([O-])cc1 | 8 | . | -1 | 7 | 1 | -3 | -1.6
11 | Cc1cc2nc(C)n(CCCNC(=O)Nc3ccccc3)c2cc1C | -1 | 4090 | 9 | 12 | -20 | 12 | 4.1
12 | N#Cc1ccc(S(=O)(=O)N2CCN(CC(=O)NCC3(N4CCOCC4)CCCCC3)CC2)cc1 | . | 8822 | 3 | 3 | -10 | 1 | 2.4
13 | Cc1c(N2C(=O)C(=O)/C(=C(/O)c3ccc(Br)cc3)C2c2cccnc2)c(=O)n(-c2ccccc2)n1C (stereo not drawn) | 0 | 2558 | 4 | 14 | -18 | 6 | 6.4
14 | COc1ccc(N2CC(C(=O)NCCc3ccc(Cl)cc3)CC2=O)c(OC)c1 (stereo not drawn) | 3 | ? | 9 | 10 | -27 | -2 | 3.3
15 | N/C(=N\OC(=O)Cc1ccc(-c2ccccc2)cc1)c1cccc([N+](=O)[O-])c1 | -13 | 16257* | . | . | -4 | . | .
16 | Cc1cc(C)cc(NC(=O)CN2CCC(NC(=O)c3cccc(F)c3)CC2)c1 | -1 | 3662 | 17 | 17 | -11 | 10 | 3.3
17 | COCCn1c(-c2ccccc2)cnc1SCC(=O)Nc1cccc2ccccc12 | -20 | 1988 | -11 | -8 | -4 | 9 | 0.4
18 | C=CCN1C(=O)c2ccccc2Sc2ccc(C(=O)NCCC)cc21 | 5 | 4203 | -4 | 2 | 0 | -4 | 3.3
19 | Cc1cc(C)n(N=Cc2c[nH]c3ccccc23)c(=O)c1C#N | . | . | -10 | -4 | . | 3 | -3.7
20 | Cc1noc(C)c1COC(=O)c1ccc2ccccc2n1 | -2 | 4428 | 6 | . | -9 | . | -0.5

The listing continues:
nr | structure | BJeLR viability | Bead autofluor | ugtP null kill | Mtb hypoxia inh | PrP UTR inh | Mtb hypoxia inh growth | RN4220 kill
21 | Cc1cccc(CC(=O)Nc2c3c(nn2-c2cccc(Cl)c2)CS(=O)C3)c1 (stereo not drawn) | -2 | 11489 | 3 | 2 | -13 | -2 | 5.5
22 | Cc1cccc(NC(=O)c2csnn2)n1 | 6 | 3689 | 4 | -4 | -15 | 9 | 1.3
23 | Cc1cc(CN2CCCCC2)oc1C(=O)O | -4 | 9721 | 3 | 5 | -7 | 7 | 2.2
24 | O=C1OCCN1CC(=O)N1CCc2c([nH]c3ccccc23)C1c1ccccn1 (stereo not drawn) | -4 | 4390 | 6 | -5 | -17 | 2 | 1.1
25 | CCCCCCCCN=Cc1c(O)[nH]c(=O)[nH]c1=O | -7 | 4383 | 2 | 0 | -21 | 3 | 0.1
26 | CCCC(=NNC(=O)c1ccccc1Cl)c1ccccc1 | . | . | 5 | 13 | . | 11 | 1.2
27 | Cc1ccc2nc(NC(=O)CSc3ncnc4c3oc3ccccc34)sc2c1 | 4 | 4510 | 2 | 1 | -10 | 3 | 0.3
28 | COc1c(OC(C)=O)ccc(/C=C/c2ccc3cccc(OC)c3n2)c1[N+](=O)[O-] | 0 | 1996 | -10 | 5 | -54 | -5 | 2.2
29 | Cn1c(=NC(=O)CN2C(=O)C3CC=CCC3C2=O)sc2ccccc21 (stereo not drawn) | 4 | 4076&3238 | -1&-1 | -13 | 30&-12 | 1 | 3.5&4.2
30 | COc1cc(C2C(C(=O)N3CCOCC3)=C(C)NC3=C2C(=O)CCC3)ccc1OC(C)=O (stereo not drawn) | 0 | 5736 | 6 | 16 | -7 | 3 | -2.6
31 | CCc1cccc2sc(N3CCN(C(=O)c4ccc([N+](=O)[O-])o4)CC3)nc12 | 15 | 4774 | 99* | . | -56 | . | 100*
32 | NC(Cc1ccc([N+](=O)[O-])cc1)=NOC(=O)c1cccc(Br)c1 | . | . | 5 | 8 | . | -5 | 1.8
33 | Cc1ccc(C)c(Cn2nnc3c(=O)[nH]c(C4CCCN(C(=O)c5cccs5)C4)nc32)c1 (stereo not drawn) | 9 | 4046 | 3 | -5 | 6 | -1 | 1.0
34 | O=C(Nc1ccc2[nH]ccc2c1)c1cccs1 | 4 | 3442 | 3 | 4 | 2 | -3 | 8.4
35 | Cc1nc(C(=O)NNC(=O)c2ccc(C(F)(F)F)cc2)cs1 | -4 | . | 3 | 12 | . | 12 | 6.8
36 | Cn1cccc1C(=O)NN=Cc1c(Cl)cccc1Cl | . | . | 12 | 9 | . | 8 | 4.7
37 | COC(=O)c1cccc(NC(=O)c2ccc3c(c2)C(=O)N(CC2CCCO2)C3=O)c1 (stereo not drawn) | 1 | 4140 | 5 | . | 0 | . | -3.1
38 | CC1CC(C)CN(C(=O)COC(=O)c2cn(C)c3ccccc23)C1 (stereo not drawn) | . | 5580 | 0 | 1 | -11 | 7 | 1.2
39 | CCC(C(=O)Nc1ccccc1-c1ccccc1)c1ccccc1 (stereo not drawn) | -5 | 4140 | 8 | . | -11 | . | 7.6
40 | Cc1ccc([N+](=O)[O-])cc1S(=O)(=O)Nc1ccc(C(=O)N(C)C)cc1 | 6 | 4525 | 7 | 4 | 3 | 9 | 5.8

The list goes on:
nr | structure | BJeLR viability | Bead autofluor | ugtP null kill | Mtb hypoxia inh | PrP UTR inh | Mtb hypoxia inh growth | RN4220 kill
41 | COc1cccc(NC(=O)C2C3C=CC(O3)C2C(=O)O)c1 (stereo not drawn) | -5 | 3963 | . | . | -18 | . | .
42 | CCC(C)NC(=O)Cn1c(COc2ccc(Cl)cc2Cl)nc2ccccc21 (stereo not drawn) | 0 | 2390 | 10 | 7 | -51 | 3 | 3.0
43 | Cc1cc(C)c2cc(CN(Cc3ccco3)C(=O)NCc3ccccc3)c(=O)[nH]c2c1 | 2 | 3232 | -15 | -3 | -16 | 3 | 5.8
44 | Cc1nc(C)c(C(=O)OCC(=O)N2CCN(c3ccccc3)CC2)s1 | 2 | 9641 | -1 | 3 | -15 | 9 | 8.9
45 | O=C(O)COc1ccc(NC(=O)c2ccc3c(c2)C(=O)N(Cc2ccccc2)C3=O)cc1 | 6 | 5036 | -2 | 0 | -13 | 1 | 0.2
46 | O=C(Nc1ccccn1)c1ccc(C(=O)Nc2ccccn2)cc1 | 0 | 4016 | 0 | 0 | -38 | 5 | -2.4
47 | CCC1=NN2C(=N)/C(=C/c3cc(C)n(Cc4ccccc4)c3C)C(=O)N=C2S1 | -6 | 4568 | -22 | 16 | -14 | 8 | 6.6
48 | CCOC(=O)N1CCN(C(=O)c2ccccc2NC(=O)COc2ccccc2)CC1 | -2 | 6114 | . | . | -8 | . | .
49 | COc1cccc(OC)c1C(=O)Nc1ccc(Br)c(C(=O)c2ccccc2)c1 | -4 | 5303 | 8 | 11 | -32 | 5 | 5.2
50 | COc1ccc(-n2ncc(C(C)NS(=O)(=O)c3cc(F)ccc3C)c2C)cc1 (stereo not drawn) | -7 | 7139 | 8 | 11 | -23 | 11 | 2.0
51 | Cc1cc(NC2CCCCC2)nc(N2CCOCC2)n1 | 0 | 4245 | -3 | 0 | -1 | 12 | -0.5
52 | COc1cc(OC)c(NS(=O)(=O)c2cc(C(=O)OC(C)C(=O)NC3CC3)c(Cl)cc2Cl)cc1Cl (stereo not drawn) | 3 | 2424 | 14 | 3 | -15 | 2 | -2.0
53 | Cn1c(SCC(=O)Nc2cccc(S(=O)(=O)N3CCOCC3)c2)nnc1-c1ccncc1 | 1 | 4622 | 14 | -1 | -13 | -2 | 5.5
54 | COc1ccc(-n2cnc3sccc3c2=O)cc1 | -2 | 3695 | 2 | 17 | -5 | 5 | 2.8
55 | O=c1[nH][nH]c(C(F)(F)F)c1C=NCc1ccccc1Cl | -1 | 3087 | 0 | 1 | -13 | 2 | 1.3
56 | CC(=O)N1c2ccc(S(=O)(=O)N3CCCC(C(=O)N4CCCC(C)C4)C3)cc2CC1C (stereo not drawn) | 0 | 4208 | 13 | 2 | -12 | -5 | 4.7
57 | CCOC(=O)C1CCN(C(=O)c2cc3cc(Cl)ccc3[nH]2)CC1 | 0 | 4166 | 6 | 6 | -24 | 3 | 4.9
58 | CCOC(=O)OC(C)OC(=O)C1N2C(=O)C(NC(=O)C(N)c3ccccc3)C2SC1(C)C (stereo not drawn) | . | . | 100* | 2 | . | -1 | 101*
59 | O=C(N/N=C/c1cccc(C(F)(F)F)c1)c1cc2c(s1)-c1ccccc1CC2 | 0 | 2718 | . | . | -12 | . | .

Molecules listed so far with an aryl methoxy group, in the order listed:
nr | structure | BJeLR viability | Bead autofluor | ugtP null kill | Mtb hypoxia inh | PrP UTR inh | Mtb hypoxia inh growth | RN4220 kill
1 | COc1ccc(C(=O)Nc2nc3ccccc3[nH]2)cc1OC | -1 | 21383* | -2 | -3 | -64 | 1 | 5.1
4 | COc1ccc(CN2CCN(C(=O)c3cccs3)CC2)cc1 | 8 | 5934 | 13 | . | 6 | . | 1.1
14 | COc1ccc(N2CC(C(=O)NCCc3ccc(Cl)cc3)CC2=O)c(OC)c1 (stereo not drawn) | 3 | ? | 9 | 10 | -27 | -2 | 3.3
28 | COc1c(OC(C)=O)ccc(/C=C/c2ccc3cccc(OC)c3n2)c1[N+](=O)[O-] | 0 | 1996 | -10 | 5 | -54 | -5 | 2.2
30 | COc1cc(C2C(C(=O)N3CCOCC3)=C(C)NC3=C2C(=O)CCC3)ccc1OC(C)=O (stereo not drawn) | 0 | 5736 | 6 | 16 | -7 | 3 | -2.6
41 | COc1cccc(NC(=O)C2C3C=CC(O3)C2C(=O)O)c1 (stereo not drawn) | -5 | 3963 | . | . | -18 | . | .
49 | COc1cccc(OC)c1C(=O)Nc1ccc(Br)c(C(=O)c2ccccc2)c1 | -4 | 5303 | 8 | 11 | -32 | 5 | 5.2
50 | COc1ccc(-n2ncc(C(C)NS(=O)(=O)c3cc(F)ccc3C)c2C)cc1 (stereo not drawn) | -7 | 7139 | 8 | 11 | -23 | 11 | 2.0
52 | COc1cc(OC)c(NS(=O)(=O)c2cc(C(=O)OC(C)C(=O)NC3CC3)c(Cl)cc2Cl)cc1Cl (stereo not drawn) | 3 | 2424 | 14 | 3 | -15 | 2 | -2.0
54 | COc1ccc(-n2cnc3sccc3c2=O)cc1 | -2 | 3695 | 2 | 17 | -5 | 5 | 2.8

Screening data as filed in PubChem BioAssay.
